VACV Venus inh: inhibitors of vaccinia virus (Venus reporter); AID 720580; Vaccinia virus Venus reporter expression, fluorescence; Potency, µM (highest dose often 36.5 µM), for inactives: at the highest dose activity change, negative = inhibition, actives largely listed as inhibitors; 330,000 compounds, 0.46% hits; active means well fitted inhibition curve with a large enough effect; inconclusive means small, poorly fitted or top-dose-only effect; inactive means no such curve, though single readings can be large or run the other way; tested in A549 cells; also: nearly all actives have a fitted effect of over 30% in size; inactives centre near -10
Vaccinia mCherry: inhibitors of vaccinia virus infection (mCherry reporter signal) | Potency, µM (titrated, usually from 36.5 µM), for the others: top-dose activity change, negative = inhibition, most hits filed as inhibitors | Vaccinia virus mCherry reporter infection, fluorescence; about a quarter of the inactives have no number | 310,000 compounds, 0.63% hits; active = well fitted inhibition curve with a large enough effect; inconclusive = small, poorly fitted or top-dose-only effect; inactive = no such curve, though single readings can be large or run the other way; tested in A549 cells; also: nearly all actives have a fitted effect of over 35% in size; inactives centre near -10
Numbers without * were called inactive; i = inactive; ? = inconclusive; nt = not tested or not shown; & = joins results of further samples; [ ] = remark or other dose. % is scaled to controls: 0 for no effect and ±100 for the full control effect; potency is read from the fitted curve at half-maximal effect.

| SMILES | Vaccinia mCherry | VACV Venus inh |
| --- | --- | --- |
| CC1=C(C#N)C(c2cccnc2)C2=C(CCCC2=O)N1 (centres undefined) | -6% | -10% |
| COc1cc2c(cc1OC)-c1cc(OCc3cccnc3)nc(=O)n1CC2 | -8% | 2% |
| CCCCn1c(=N)c(S(=O)(=O)c2ccccc2)cc2c(=O)n3cccc(C)c3nc21 | -7% | -5% |
| O=c1[nH]ccc2c(O)cccc12 | 0% | -1% |
| CCCn1ncc(CN2CCC(n3nccc3NC(=O)c3ccccc3OC)CC2)c1C | -2% | -14% |
| COC(OC)C1Nc2ccccc2C(=O)N1c1ccc(F)cc1 (centres undefined) | 0% | -11% |
| CC(=O)c1ccccc1C(=O)N1CCCC(CNC(=O)c2ccccc2Cl)C1 (centres undefined) | -10%[7.34 µM] | 1%[7.34 µM] |
| CS(=O)(=O)c1ccc(C(=O)OCc2nnc(-c3ccccc3)o2)cc1[N+](=O)[O-] | -17% | ? |
| COc1ccc(C(=O)N2CC(=O)N(CCc3ccccc3)C(=O)C2)cc1OC | nt | -17% |
| CCOc1cccc(NC(=O)C2CC(=O)N(C)C(=Nc3cccc(OC)c3)S2)c1 (centres undefined) | -13% | -15% |
| O=C1c2ccccc2C(=O)N1Cc1ccccn1 | i | -18% |
| CCOc1ccc(N2CC(C(=O)NCCc3ccc(S(N)(=O)=O)cc3)CC2=O)cc1 (centres undefined) | i | -1% |
| Cc1ccc(Cc2cncc(O)c2)cc1S(=O)(=O)O | -9% | 2% |
| COc1ccc(S(=O)(=O)NCC(c2cccnc2)N2CCN(Cc3ccccc3)CC2)cc1 (centres undefined) | i | 3% |
| CCCN(CCC)CCCNC(=O)c1cn(CC)c2ccc(S(=O)(=O)N3CCc4ccccc4C3)cc2c1=O | ? | ? |
| CC(=O)Nc1cccc(NC(=O)Cc2ccc3ccccc3c2)c1 | -17% | -8% |
| COc1ccc2c(c1)c1c(c(=O)n(-c3ccc(C)cc3)c(=O)n1CC(=O)Nc1cc(C)ccc1C)n2C | -6% | 2% |
| CSc1sc(C(=O)O)c(C)c1C(C)=O | nt | -13% |
| CCCNc1nc(-c2cc(-c3ccc(Cl)cc3)on2)cc(C(C)C)n1 | -10% | -19% |
| O=C(c1cccc([N+](=O)[O-])c1)N1c2ncnn2C2(CCCCC2)[C@@H]2CCCC[C@@H]21 | -10% | -4% |
| Cc1ccc(Cn2c(C(CO)Nc3nc(-c4ccc(F)cc4)cs3)nc3ccccc32)cc1 (centres undefined) | -21% | ? |
| CC(=O)[C@H]1CC[C@H]2[C@@H]3CCC4=CC(=O)CC[C@]4(C)[C@H]3[C@H](O)C[C@]12C | -27% | -13% |
| COCc1c(C(=O)NC2CCCCC2)cnn1-c1nccc(-c2cc(C)sc2C)n1 | -2% | -1% |
| CCCCC(=O)Nc1ccc(NC(=O)C(C)C)cn1 | -22% | -16% |
| O=C(CN1C(=O)S/C(=C/c2ccncc2)C1=O)N1CCOCC1 | -10% | -4% |
| COc1ccc(O)c(C(=O)c2cc(C(=O)NCCc3ccccc3)c(=O)n(CCc3ccccc3)c2)c1 | -13% | ? |
| Cc1cc(C)n2nc(C(=O)N/N=C/c3c4ccccc4cc4ccccc34)nc2n1 | -26% | -8% |
| CCCCCCNC(=O)OC12CN(C(=O)OC(C)C)N(C(=O)OC(C)C)CC1(O)CN(S(=O)(=O)c1ccc(C)cc1)C2 (centres undefined) | -24% | ? |
| Cn1cc(S(=O)(=O)c2ccccc2)c(=O)c2cc(F)c(N3CCOCC3)cc21 | -12% | -9%&-8% |
| COC(=O)c1cnn(-c2ccc(C(=O)Nc3ccc(C(C)=O)cc3)cc2)c1N | -2% | -10% |
| COc1ccc(CC(=O)OCC(=O)Nc2ncc(Cl)cc2Cl)cc1 | nt | -4% |
| CCN(CC)S(=O)(=O)c1ccc(S(=O)(=O)Nc2ccc(C(=O)N3CCCC3)cc2)cc1 | -13% | -15% |
| COc1cc(NC(=O)C2CC(c3c(F)cccc3Cl)=NO2)cc(OC)c1OC (centres undefined) | -12% | -18% |
| O=C(NCc1ccc(Cl)cc1)c1cc2ccccc2oc1=O | -20% | -2% |
| COC(=O)CSc1nnc(CNc2ccc(OC)cc2)n1C | -9% | -16% |
| C/C(=N\NC(=O)c1ccccc1)c1ccccc1Br | -30% | -19% |
| Cc1ccc(C2Nc3cccc4cccc(c34)N2)s1 | -12% | -3% |
| O=c1[nH][nH]cc1C=Nc1ccc(Oc2ccccc2)cc1 | -20% | 2% |
| COc1cc(OC)cc(C(=O)N2CCN(C(=O)Cc3ccccc3)CC2)c1 | 2% | 2% |
| Cc1ccc(-n2nc(C(=O)N3CCN(C)CC3)c3c4ccccc4n(C)c3c2=O)cc1 | -12% | -8% |
| Nc1nc(SCC(=O)NCC2CCCO2)[nH]c(=O)c1NC(=O)c1ccc(F)c(F)c1 (centres undefined) | -1% | -16% |
| Cc1ccc(NC(=O)CN(C)C(=O)Cn2ncc(Cl)c(Cl)c2=O)cc1 | ? | ? |
| O=C(COC(=O)/C=C/c1cccc(Cl)c1)Nc1c(F)cccc1F | -6% | -1% |
| Cc1cc(C)cc(N2C(=O)N(c3ccccc3C)C3CS(=O)(=O)CC32)c1 (centres undefined) | -5% | -12% |
| COc1ccc(CC(=O)Nc2cc(S(=O)(=O)N3CCCCC3)ccc2C)cc1 | -21% | -16% |
| CCCCN1C[C@H](O)[C@@H](O)[C@H](O)[C@H]1CO | -15% | -5% |
| Cc1nc(SCC(=O)Nc2ccc3c(c2)OCCO3)nc(C)c1C | -25% | -25% |
| CCOc1ccc(CNCCSc2nnnn2C)cc1OC | 12% | 3% |
| CCOC(=O)c1cccc(NC(=O)c2ccccc2C)c1 | -14% | -8% |
| CC(C)NC(=O)c1cn([C@H]2CC[C@@H](NC(=O)/C=C/c3cccs3)CC2)nn1 | -1% | -17% |
| COc1ccc(CCNc2ncnc3c2c(-c2ccccc2)cn3-c2ccc(Cl)cc2)cc1OC | -17% | -7% |
| CCN(CC)CCNC(=O)c1cc2ccccc2nc1Cl | -9% | -4% |
| CC(=O)n1nc(-c2ccc(C)cc2)nc1NCc1ccc(F)cc1 | ? | -23% |
| COc1ccc(C(CNC(=O)c2ccc(-c3ccccc3)cc2)N(C)C)cc1OC (centres undefined) | ? | -25% |
| COc1ccc(NCc2cc3cc4c(cc3n(CC(=O)Nc3cc(C)cc(C)c3)c2=O)OCO4)cc1 | 7% | 6% |
| CCN(c1cccc(C)c1)c1nc2ccsc2c(=O)s1 | -4% | -16% |
| Cc1cc(C)nc(NS(=O)(=O)c2ccc(N/C=C\C(=O)c3ccc(Cl)cc3)cc2)n1 | i | -13% |
| CN(C)S(=O)(=O)N1CCC(Oc2cccc(C(=O)N3CCCCCC3)c2)CC1 | -4% | -12% |
| CC1(C)Cc2ccccc2C(/C(C#N)=N/O)=N1 | -4% | 9% |
| COc1ccc(C(=O)O)cc1NC(=S)NC(=O)/C=C/c1ccc(C(C)C)cc1 | -1% | 9% |

2 neighbouring entries out of the list so far, quoted:
| SMILES | Vaccinia mCherry | VACV Venus inh |
| --- | --- | --- |
| Nc1nc(SCC(=O)NCC2CCCO2)[nH]c(=O)c1NC(=O)c1ccc(F)c(F)c1 (centres undefined) | -1% | -16% |
| Cc1ccc(NC(=O)CN(C)C(=O)Cn2ncc(Cl)c(Cl)c2=O)cc1 | ? | ? |

Continued:
| SMILES | Vaccinia mCherry | VACV Venus inh |
| --- | --- | --- |
| CCC(c1nnnn1-c1ccc2c(c1)OCCO2)N1CCN(c2ncccc2C(F)(F)F)CC1 (centres undefined) | -6%&-14% | -8%&-6% |
| COc1ccc(C(=O)OCC(=O)Nc2cccc(C(C)=O)c2)cc1OC | i | -10% |
| Cc1ccc(-n2c(O)c(C=NC3CCS(=O)(=O)C3)c3ccccc3c2=O)c(C)c1 (centres undefined) | -2% | -9% |
| Cc1ccc(CNCCc2ccccc2F)cc1 | -27% | -16% |
| CC(OC(=O)CNC(=O)C12CC3CC(CC(C3)C1)C2)C(=O)Nc1ncc(Cl)cc1Cl (centres undefined) | -2% | -10% |
| CCC(=O)NCC(=O)OCC(=O)c1ccccc1 | -8% | -5% |
| CCc1nc2ccc(C(=O)N(CC)CCN(C)C)cn2c1N(CC)CCOC | 41%[activator] | 12% |
| COc1ccccc1-n1c(SCC(=O)NC(C)(C)C)nc(O)c(Cc2ccccc2)c1=O | i | -11% |
| CCCCN1C(=O)C(CC(=O)NC2CCCCC2)CC(C(=O)N(CC)CC)=C1C (centres undefined) | i | -3% |
| O=C1NCN(c2ccccc2)C12CCN(C(c1nnnn1C1CCCC1)C1CC1)CC2 (centres undefined) | 15% | -15% |
| CN(C)c1ccc(/C=N/NC(=S)NCc2ccccc2)cc1 | -3% | -11% |
| CCN(CC(=O)NCCc1ccc(Cl)cc1)Cc1nc2ccccc2c(=O)[nH]1 | -6% | -6% |
| COc1cccc(-c2nc3cc(SC)ccc3cc2CN(C(=O)c2sccc2C)C2CC2)c1 | i | -14% |
| COc1ccc(CCNC(=O)C2CCCN(c3nn4c(=O)cc(C)nc4s3)C2)cc1OC (centres undefined) | nt | -6% |
| O=C(O)Cn1c(CC(=O)N2CCCC2)nc2ccccc21 | -16% | 0% |
| CCS(=O)(=O)NCC(c1cccnc1)N1CCN(c2ccccc2F)CC1 (centres undefined) | nt | -9% |
| CCN1CCN(c2ccc(NC(=O)c3ccccc3F)cc2Cl)CC1 | -4% | -11% |
| O=C(Cc1cccc(NC(=O)C2CCCN(C(=O)c3ccccc3)C2)c1)Nc1ccc(C(=O)N2CCOCC2)cc1 (centres undefined) | -3% | 10% |
| Cc1cc(C)c(NC(=O)CSc2nc3c([nH]c4ccccc43)c(=O)n2C)c(C)c1 | -3% | -12% |
| CCC(=O)C1CCCN(C(=O)c2ccc(OC3CCN(C(=O)c4cccnc4)CC3)cc2)C1 (centres undefined) | -6% | -4% |
| O=c1c([N+](=O)[O-])c(O)c2cccc3c2n1CCC3 | i | 3% |
| O=S1(=O)C[C@@H](N2CCN(CCO)CC2)[C@H](COCc2ccccc2)N1 | 4% | -9% |
| Cc1cc(O)c(C(C)C)cc1C1(c2cc(C(C)C)c(O)cc2C)OC(=O)c2ccccc21 | ? | ? |
| CC(C)(C)OC(=O)C[C@H]1C/C=C\C[C@@H](CC(=O)N[C@@H](CO)Cc2ccccc2)C(=O)NCCOC1=O | -5% | -11% |
| Cc1ccsc1/C=C(\C(=O)c1ccc(OC(C)C)cc1)c1nc2ccccc2o1 | i | -5% |
| CCO[C@H]1OC(C(=O)N2CCOCC2)=C[C@@H](c2ccc(Br)cc2)[C@@H]1CCCO | i | -10% |
| COCCNc1nc2c(c(=O)[nH]c(=O)n2C)n1CCCc1ccccc1 | -9% | -8% |
| OC(CNc1ccccc1)Cn1ccc2ccccc21 (centres undefined) | -8% | -7% |
| Cc1ccc(-c2cn3c4c(=O)n(C)c(=O)n(C)c4nc3n2-c2cccc(Cl)c2)cc1 | -3% | 1% |
| CCOC(=O)c1c(N)sc2c(OCC)c(Br)ccc12 | -22% | -30% |

Molecules from the list above that have a nitro group on carbon, in the order listed:
| SMILES | Vaccinia mCherry | VACV Venus inh |
| --- | --- | --- |
| CS(=O)(=O)c1ccc(C(=O)OCc2nnc(-c3ccccc3)o2)cc1[N+](=O)[O-] | -17% | ? |
| O=C(c1cccc([N+](=O)[O-])c1)N1c2ncnn2C2(CCCCC2)[C@@H]2CCCC[C@@H]21 | -10% | -4% |
| O=c1c([N+](=O)[O-])c(O)c2cccc3c2n1CCC3 | i | 3% |

Returning to the listing; the 3 compounds before the break are reprinted first.
| SMILES | Vaccinia mCherry | VACV Venus inh |
| --- | --- | --- |
| OC(CNc1ccccc1)Cn1ccc2ccccc21 (centres undefined) | -8% | -7% |
| Cc1ccc(-c2cn3c4c(=O)n(C)c(=O)n(C)c4nc3n2-c2cccc(Cl)c2)cc1 | -3% | 1% |
| CCOC(=O)c1c(N)sc2c(OCC)c(Br)ccc12 | -22% | -30% |
| COc1ccc(CNC(=O)CN(Cc2ccc(Cl)cc2)S(C)(=O)=O)cc1 | -22% | -21% |
| Cc1nnc(N/N=C/c2cccc(OCc3ccc(Cl)c(Cl)c3)c2)n1N | ? | ? |
| COC(=O)C1=C(COc2ccc(C=O)cc2OC)NC(=O)NC1c1cc(C)ccc1C (centres undefined) | -2% | -3% |
| COc1cc2nc(N3CCCCC3)nc(NC3CCN(C)CC3)c2cc1OC | ? | ? |
| O=C1O[C@@H](c2ccc(O)cc2)Cc2cccc(O)c21 | i | -1% |
| Cc1cc(C)c(C(=O)O)c(CC(C)(C)C(=O)O)c1 | i[7.34 µM] | -4%[7.34 µM] |
| O=C(CN1C(=O)COc2ccc(S(=O)(=O)N3CCOCC3)cc21)N1CCN(c2cccc(Cl)c2)CC1 | -1% | 6% |
| CC(=O)N/N=C(\C)CC(=O)Nc1cccc(C(F)(F)F)c1 | -15% | -17% |
| CSc1cccc(CNC(=O)C2CCC(=O)N(CCc3ccccc3)C2)c1 (centres undefined) | -21% | -20% |
| CCc1ccc(-c2cc(C(=O)NCc3ccco3)c3ccccc3n2)s1 | i | -7% |
| CCc1ccc(C(=O)NNc2ccc(F)cc2)cc1 | ? | 9% |
| N#Cc1c(-c2cccc([N+](=O)[O-])c2)nc2n(c1=O)CCS2 | -1% | -20% |
| COc1ccc(-c2nc3sc(CCNC(=O)C(=O)Nc4c(C)cccc4C)c(C)n3n2)cc1 | -12% | -17% |
| CCS(=O)(=O)c1ncc(Cl)c(C(=O)Nc2ccc(C)cc2)n1 | ? | ? |

Compound profiles, from the list above:
O=c1c([N+](=O)[O-])c(O)c2cccc3c2n1CCC3 across the screens: Vaccinia mCherry = i; VACV Venus inh = 3%
CCN(CC)S(=O)(=O)c1ccc(S(=O)(=O)Nc2ccc(C(=O)N3CCCC3)cc2)cc1 across the screens: Vaccinia mCherry = -13%; VACV Venus inh = -15%

Compounds were not picked by outcome; overall some 0.82% were active at least once.
